From PubChem BioAssay
Env fusion inh: inhibitors of HIV Env-mediated cell fusion. HeLa-JRFL Env/CEM21 cell fusion, luciferase. inhibition, % at 12.3 µM. hit rate 1.1% among 360,000. AID 651610;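 active = mean replicate inhibition score of at least 50 and every replicate individually at or above 50; inconclusive = only one of the two criteria met; inactive = mean below 50 and not all replicates reaching 50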;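 note: 0% = plate neutral controls and 100% = maraviroc near 300 nM; one replicate is shown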
Yeast UUG start: modulators of start codon recognition fidelity in yeast. S. cerevisiae UUG-firefly luciferase reporter, luminescence/redox ratio. activity score, % at 18.7 µM. hit rate 0.13% among 350,000;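 active = replicate mean at a twofold rise or more, about +100% in these data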;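 note: firefly luciferase made from a UUG start codon reports start codon fidelity; reporter light over untreated wells divided by growth signal over untreated wells; some hits fall short of that in this replicate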
Starred values were filed as active, the others as inactive; [ ] = dose if it differs, or a comment.

Results for C[C@@H]1CN([C@H](C)CO)S(=O)(=O)c2ccc(C3=CCCC3)cc2O[C@@H]1CN(C)Cc1ccccc1 ?
Env fusion inh: inconclusive; Yeast UUG start: -6

How did C[C@@H]1CN([C@H](C)CO)C(=O)Cc2cc(NS(=O)(=O)c3cccs3)ccc2O[C@@H]1CN(C)Cc1ccc(Cl)c(Cl)c1 do in these assays?
Env fusion inh: 4[16.7 µM]; Yeast UUG start: -1

What do the screens show for `COc1cccc(NC(=O)N(C)C[C@@H]2Oc3ncc(C#Cc4ccc(F)cc4)cc3C(=O)N([C@H](C)CO)C[C@@H]2C)c1`?
Env fusion inh: 19[16.7 µM]; Yeast UUG start: 2

What do the screens show for `O=C(C[C@H]1C[C@H]2c3cc(NC(=O)CC4CC4)ccc3O[C@H]2[C@@H](CO)O1)NCc1ccncc1`?
Env fusion inh: -8[16.7 µM]; Yeast UUG start: -13

What do the screens show for `N#C[C@H]1[C@H](c2ccc(-c3ccccc3F)cc2)[C@@H](CO)N1C(=O)C1CCOCC1`?
Env fusion inh: -5[16.7 µM]; Yeast UUG start: -7

What do the screens show for `CCC(=O)Nc1ccc2c(c1)OC[C@H](C)N(C(=O)CN(C)C)C[C@H](C)[C@H](OC)CN(C)C2=O`?
Env fusion inh: -1[16.7 µM]; Yeast UUG start: 5

What do the screens show for `O=C(C[C@H]1CC[C@H](NC(=O)c2cccnc2)[C@@H](CO)O1)NCc1ccncn1`?
Env fusion inh: 9[16.7 µM]; Yeast UUG start: -13

Results for C[C@H](CO)N1C[C@H](C)[C@H](CN(C)Cc2ccncc2)OCCCC[C@H](C)Oc2ccc(NS(=O)(=O)c3ccc(F)cc3)cc2C1=O ?
Env fusion inh: 4[16.7 µM]; Yeast UUG start: -10

Results for C[C@H]1CCCCO[C@@H](CN(C)Cc2ccc(C(F)(F)F)cc2)[C@@H](C)CN([C@@H](C)CO)C(=O)c2cc(NC(=O)CCC(F)(F)F)ccc2O1 ?
Env fusion inh: 0[16.7 µM]; Yeast UUG start: -5

What do the screens show for `COc1ccc(NC(=O)N(C)C[C@@H]2Oc3ccc(NC(=O)NC(C)C)cc3CC(=O)N([C@@H](C)CO)C[C@H]2C)cc1`?
Env fusion inh: 13[16.7 µM]; Yeast UUG start: -5

How did Cc1noc(C)c1S(=O)(=O)N(C)C[C@H]1Oc2ccc(NC(=O)NC(C)C)cc2CC(=O)N([C@H](C)CO)C[C@H]1C do in these assays?
Env fusion inh: 6[16.7 µM]; Yeast UUG start: -2

Results for CCNC(=O)C[C@H]1CC[C@@H](NC(=O)C2CC2)[C@H](CO)O1 ?
Env fusion inh: -7[16.7 µM]; Yeast UUG start: 6

How did Cn1cnc(S(=O)(=O)N[C@@H]2CC[C@H](CC(=O)N3CCN(c4ccccc4)CC3)O[C@H]2CO)c1 do in these assays?
Env fusion inh: 6[16.7 µM]; Yeast UUG start: -2

Results for C[C@@H]1CN([C@H](C)CO)S(=O)(=O)c2ccc(C#CC3(O)CCCC3)cc2O[C@H]1CN(C)C(=O)Cc1cccnc1 ?
Env fusion inh: -20[16.7 µM]; Yeast UUG start: -2

What do the screens show for `COc1cccc(-c2cnc3c(c2)C(=O)N([C@H](C)CO)C[C@@H](C)[C@H](CN(C)C(=O)CN(C)C)O3)c1`?
Env fusion inh: -22[16.7 µM]; Yeast UUG start: 14

Results for COc1ccc(CN(C)C[C@H]2Oc3c(NC(=O)C4CCCCC4)cccc3C(=O)N([C@@H](C)CO)C[C@@H]2C)cc1 ?
Env fusion inh: 8[16.7 µM]; Yeast UUG start: 10

What do the screens show for `C[C@H]1CN([C@@H](C)CO)C(=O)Cc2cc(NC(=O)Nc3ccc(F)cc3)ccc2O[C@H]1CN(C)CC1CCCCC1`?
Env fusion inh: 17[16.7 µM]; Yeast UUG start: 1

How did C[C@@H]1CN([C@@H](C)CO)C(=O)c2cccc(NS(=O)(=O)c3cn(C)cn3)c2O[C@H]1CN(C)S(=O)(=O)c1ccc(Cl)cc1 do in these assays?
Env fusion inh: 2[16.7 µM]; Yeast UUG start: 4

How did COc1ccc(NC(=O)Nc2ccc3c(c2)C(=O)N([C@@H](C)CO)C[C@@H](C)[C@H](CN(C)C(=O)Nc2ccc4c(c2)OCO4)OCCCC[C@@H](C)O3)cc1 do in these assays?
Env fusion inh: -8[16.7 µM]; Yeast UUG start: -12

What do the screens show for `C[C@@H]1CCCCO[C@H](CN(C)Cc2ccc3c(c2)OCO3)[C@H](C)CN([C@@H](C)CO)C(=O)c2cc(NS(=O)(=O)c3cn(C)cn3)ccc2O1`?
Env fusion inh: -3[16.7 µM]; Yeast UUG start: 0

Reprinted from the part before: two entries, followed by the next part.
How did COc1ccc(NC(=O)Nc2ccc3c(c2)C(=O)N([C@@H](C)CO)C[C@@H](C)[C@H](CN(C)C(=O)Nc2ccc4c(c2)OCO4)OCCCC[C@@H](C)O3)cc1 do in these assays?
Env fusion inh: -8[16.7 µM]; Yeast UUG start: -12

What do the screens show for `C[C@@H]1CCCCO[C@H](CN(C)Cc2ccc3c(c2)OCO3)[C@H](C)CN([C@@H](C)CO)C(=O)c2cc(NS(=O)(=O)c3cn(C)cn3)ccc2O1`?
Env fusion inh: -3[16.7 µM]; Yeast UUG start: 0

What do the screens show for `CCNC(=O)C[C@@H]1CC[C@H]2[C@H](COc3ccc(NC(=O)Nc4ccccc4C)cc3C(=O)N2C)O1`?
Env fusion inh: 9[16.7 µM]; Yeast UUG start: 2

How did Cc1cc(C(=O)Nc2cccc3c2O[C@@H](CN(C)S(=O)(=O)c2ccc(Cl)cc2)[C@@H](C)CN([C@@H](C)CO)C3=O)n(C)n1 do in these assays?
Env fusion inh: -18[16.7 µM]; Yeast UUG start: -9

What do the screens show for `C[C@@H]1CN([C@H](C)CO)C(=O)Cc2cc(NC(=O)Nc3ccc(F)cc3)ccc2O[C@H]1CN(C)Cc1ccc(Cl)c(Cl)c1`?
Env fusion inh: 11[16.7 µM]; Yeast UUG start: 9

How did COc1cccc(S(=O)(=O)N[C@@H]2CC[C@H](CCn3cc(-c4ccccc4OC)nn3)O[C@@H]2CO)c1 do in these assays?
Env fusion inh: 24[16.7 µM]; Yeast UUG start: 6

Results for Cc1ccc(-c2cnc3c(c2)C(=O)N([C@@H](C)CO)C[C@H](C)[C@H](CN(C)C(=O)c2ccccc2)O3)cc1 ?
Env fusion inh: -9[16.7 µM]; Yeast UUG start: 5

Results for CCCC#Cc1cnc2c(c1)C(=O)N([C@@H](C)CO)C[C@@H](C)[C@@H](CN(C)C(=O)Nc1cc(F)ccc1F)O2 ?
Env fusion inh: 15[16.7 µM]; Yeast UUG start: 21

How did C[C@@H]1CCCCO[C@@H](CN(C)Cc2ccc3c(c2)OCO3)[C@H](C)CN([C@@H](C)CO)C(=O)c2cc(NS(=O)(=O)c3ccc(F)cc3)ccc2O1 do in these assays?
Env fusion inh: 8[16.7 µM]; Yeast UUG start: 11

What do the screens show for `CC(C)NC(=O)Nc1ccc2c(c1)C(=O)N([C@@H](C)CO)C[C@H](C)[C@@H](CN(C)Cc1ccc(Cl)c(Cl)c1)OCCCC[C@H](C)O2`?
Env fusion inh: 7[16.7 µM]; Yeast UUG start: 2

How did COCCNC(=O)C[C@H]1CC[C@H]2[C@H](COc3ccc(NC(=O)C4CCCC4)cc3C(=O)N2C)O1 do in these assays?
Env fusion inh: -5[16.7 µM]; Yeast UUG start: 12

How did Cc1noc(C)c1S(=O)(=O)N(C)C[C@H]1Oc2ccc(N(C)C)cc2CC(=O)N([C@@H](C)CO)C[C@@H]1C do in these assays?
Env fusion inh: -3[16.7 µM]; Yeast UUG start: 8

How did COc1ccccc1-c1ccc2c(c1)O[C@H](CN(C)C(C)=O)[C@H](C)CN([C@H](C)CO)S2(=O)=O do in these assays?
Env fusion inh: 20[16.7 µM]; Yeast UUG start: -20

Results for N#C[C@H]1[C@H](c2ccc(C#Cc3ccc(F)cc3)cc2)[C@H](CO)N1C(=O)Nc1ccc(F)cc1 ?
Env fusion inh: 2[16.7 µM]; Yeast UUG start: 4

Results for CC(C)NC(=O)Nc1ccc2c(c1)CC(=O)N([C@@H](C)CO)C[C@H](C)[C@H](CN(C)C(=O)Nc1ccc(F)cc1)O2 ?
Env fusion inh: 3[16.7 µM]; Yeast UUG start: 2

Results for COc1ccc(CNC(=O)C[C@H]2CC[C@H](NS(=O)(=O)c3cccc(OC)c3)[C@H](CO)O2)cc1 ?
Env fusion inh: 23[16.7 µM]; Yeast UUG start: -1

How did CN1CCN(C(=O)C[C@@H]2CC[C@H]3[C@H](COc4ccc(NC(=O)c5cccs5)cc4C(=O)N3C)O2)CC1 do in these assays?
Env fusion inh: 0[16.7 µM]; Yeast UUG start: -9

What do the screens show for `CCCC#Cc1ccc([C@@H]2[C@@H](CO)N(C(=O)C3CCOCC3)[C@H]2C#N)cc1`?
Env fusion inh: -6[16.7 µM]; Yeast UUG start: 23

How did C[C@@H]1CN([C@H](C)CO)C(=O)c2cc(NS(=O)(=O)c3cccs3)ccc2O[C@@H]1CN(C)CC1CC1 do in these assays?
Env fusion inh: 0[16.7 µM]; Yeast UUG start: -1

What do the screens show for `C[C@@H]1CN([C@@H](C)CO)S(=O)(=O)c2ccc(-c3ccncc3)cc2O[C@H]1CN(C)C(=O)Nc1ccc(C(F)(F)F)cc1`?
Env fusion inh: -6[16.7 µM]; Yeast UUG start: -14

What do the screens show for `Cc1ccc(S(=O)(=O)N(C)C[C@@H]2OCCCC[C@H](C)Oc3ccc(NC(=O)Nc4ccccc4)cc3C(=O)N([C@@H](C)CO)C[C@H]2C)cc1`?
Env fusion inh: 11[16.7 µM]; Yeast UUG start: -13

What do the screens show for `Cc1noc(C)c1NC(=O)N(C)C[C@@H]1OCCCC[C@@H](C)Oc2ccc(NS(=O)(=O)c3cccs3)cc2C(=O)N([C@H](C)CO)C[C@@H]1C`?
Env fusion inh: 9[16.7 µM]; Yeast UUG start: -4

How did COc1ccc(S(=O)(=O)Nc2cccc3c2O[C@H](CN(C)Cc2ccc4c(c2)OCO4)[C@@H](C)CN([C@H](C)CO)C3=O)cc1 do in these assays?
Env fusion inh: 3[16.7 µM]; Yeast UUG start: 7

What do the screens show for `O=C(O)C[C@@H]1C[C@H]2c3cc(NC(=O)NC4CCCCC4)ccc3O[C@H]2[C@H](CO)O1`?
Env fusion inh: -6[16.7 µM]; Yeast UUG start: 6

How did C[C@H](CO)N1C[C@H](C)[C@H](CN(C)S(C)(=O)=O)OCCCC[C@H](C)Oc2ccc(NC(=O)CCC(F)(F)F)cc2C1=O do in these assays?
Env fusion inh: -15[16.7 µM]; Yeast UUG start: -8

Results for CCC(=O)N(C)C[C@H]1Oc2cc(-c3ccccc3F)ccc2S(=O)(=O)N([C@H](C)CO)C[C@@H]1C ?
Env fusion inh: 15[16.7 µM]; Yeast UUG start: 10

How did COc1ccc(NC(=O)N[C@H]2CC[C@H](CCNC(=O)CN3CCOCC3)O[C@H]2CO)cc1 do in these assays?
Env fusion inh: -1[16.7 µM]; Yeast UUG start: 27

Results for Cc1noc(C)c1S(=O)(=O)N(C)C[C@H]1OCCCC[C@@H](C)Oc2ccc(NC(=O)Nc3ccc(F)cc3)cc2C(=O)N([C@@H](C)CO)C[C@@H]1C ?
Env fusion inh: -21[16.7 µM]; Yeast UUG start: -9

What do the screens show for `Cc1noc(C)c1S(=O)(=O)Nc1ccc2c(c1)C(=O)N([C@H](C)CO)C[C@@H](C)[C@@H](CN(C)S(=O)(=O)c1ccc(Cl)cc1)O2`?
Env fusion inh: -6[16.7 µM]; Yeast UUG start: -1

Results for Cc1noc(C)c1NC(=O)N[C@H]1C=C[C@@H](CC(=O)N2CCN(C)CC2)O[C@@H]1CO ?
Env fusion inh: -5[16.7 µM]; Yeast UUG start: -10

How did C[C@H](CO)N1C[C@H](C)[C@H](CN(C)Cc2ccncc2)Oc2ccc(NS(C)(=O)=O)cc2C1=O do in these assays?
Env fusion inh: -11[16.7 µM]; Yeast UUG start: -8

Results for C[C@@H]1CCCCO[C@H](CN(C)Cc2ccncc2)[C@H](C)CN([C@H](C)CO)C(=O)c2cc(NC(=O)NC3CCCCC3)ccc2O1 ?
Env fusion inh: 12[16.7 µM]; Yeast UUG start: -7

What do the screens show for `C[C@@H]1CCCCO[C@@H](CN(C)C(=O)Nc2ccc3c(c2)OCO3)[C@@H](C)CN([C@H](C)CO)C(=O)c2cc(NC(=O)NC3CCCCC3)ccc2O1`?
Env fusion inh: 3[16.7 µM]; Yeast UUG start: -10

What do the screens show for `C[C@H](NC(=O)C[C@H]1CC[C@H](NC(=O)C2CCOCC2)[C@@H](CO)O1)c1ccccc1`?
Env fusion inh: 1[16.7 µM]; Yeast UUG start: -11

Results for COc1ccc(C(=O)Nc2ccc3c(c2)OC[C@@H](C)NC[C@@H](C)[C@@H](OC)CN(C)C3=O)cc1 ?
Env fusion inh: -17[16.7 µM]; Yeast UUG start: -2

Results for Cc1noc(C)c1S(=O)(=O)Nc1ccc2c(c1)C(=O)N([C@H](C)CO)C[C@@H](C)[C@@H](CN(C)C(=O)c1ccncc1)OCCCC[C@H](C)O2 ?
Env fusion inh: -2[16.7 µM]; Yeast UUG start: 7

Among those listed so far, these contain a CF3 group.
Results for C[C@H]1CCCCO[C@@H](CN(C)Cc2ccc(C(F)(F)F)cc2)[C@@H](C)CN([C@@H](C)CO)C(=O)c2cc(NC(=O)CCC(F)(F)F)ccc2O1 ?
Env fusion inh: 0[16.7 µM]; Yeast UUG start: -5

What do the screens show for `C[C@@H]1CN([C@@H](C)CO)S(=O)(=O)c2ccc(-c3ccncc3)cc2O[C@H]1CN(C)C(=O)Nc1ccc(C(F)(F)F)cc1`?
Env fusion inh: -6[16.7 µM]; Yeast UUG start: -14

How did C[C@H](CO)N1C[C@H](C)[C@H](CN(C)S(C)(=O)=O)OCCCC[C@H](C)Oc2ccc(NC(=O)CCC(F)(F)F)cc2C1=O do in these assays?
Env fusion inh: -15[16.7 µM]; Yeast UUG start: -8

A portion of the library. The share of hits here may be higher or lower than overall.
